miR-21 reporter: raises the signal of a miR-21 reporter; HeLa miR-21 FLuc reporter, luciferase, 48 h; Potency, µM (doses to about 38.3 µM), without a hit: at the highest dose reporter change, positive = more light; 340,000 tested, under 10 active; AID 2288; active = well fitted rising curve with a large enough effect; inconclusive = small, poorly fitted or top-dose-only effect; inactive = no such curve, though single readings can be large or run the other way;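 also: % of control where 0% means no effect; miR-21 action dims this reporter so a rising signal means less miR-21 action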
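Luminescence from a firefly luciferase reporter carrying a miR-21 binding site downstream, stably expressed under a CMV promoter in HeLa cells that make miR-21 endogenously, reports miRNA modulation after 48 h compound exposure up to approximately 40uM final.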
Rango-impB inh: prevents formation of the Rango-importin beta complex; Q14974; Rango CFP/YFP FRET sensor + importin beta, 45 min; Potency, µM (titrated, usually from 92.2 µM), without a hit: top-dose inhibition of complex formation; 340,000 compounds, 0.031% hits; AID 540263; active = rising FRET ratio curve, often small or poorly fitted; inconclusive = mostly compound fluorescence or quenching in the first reads; inactive = flat curves in all reads;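 also: potency is read from the fitted curve at half-maximal effect; 0% = DMSO wells and 100% = buffer wells lacking importin beta; nearly all actives have a fitted effect of over 15% in size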
Target sequence (Q14974 whole entry, looked up): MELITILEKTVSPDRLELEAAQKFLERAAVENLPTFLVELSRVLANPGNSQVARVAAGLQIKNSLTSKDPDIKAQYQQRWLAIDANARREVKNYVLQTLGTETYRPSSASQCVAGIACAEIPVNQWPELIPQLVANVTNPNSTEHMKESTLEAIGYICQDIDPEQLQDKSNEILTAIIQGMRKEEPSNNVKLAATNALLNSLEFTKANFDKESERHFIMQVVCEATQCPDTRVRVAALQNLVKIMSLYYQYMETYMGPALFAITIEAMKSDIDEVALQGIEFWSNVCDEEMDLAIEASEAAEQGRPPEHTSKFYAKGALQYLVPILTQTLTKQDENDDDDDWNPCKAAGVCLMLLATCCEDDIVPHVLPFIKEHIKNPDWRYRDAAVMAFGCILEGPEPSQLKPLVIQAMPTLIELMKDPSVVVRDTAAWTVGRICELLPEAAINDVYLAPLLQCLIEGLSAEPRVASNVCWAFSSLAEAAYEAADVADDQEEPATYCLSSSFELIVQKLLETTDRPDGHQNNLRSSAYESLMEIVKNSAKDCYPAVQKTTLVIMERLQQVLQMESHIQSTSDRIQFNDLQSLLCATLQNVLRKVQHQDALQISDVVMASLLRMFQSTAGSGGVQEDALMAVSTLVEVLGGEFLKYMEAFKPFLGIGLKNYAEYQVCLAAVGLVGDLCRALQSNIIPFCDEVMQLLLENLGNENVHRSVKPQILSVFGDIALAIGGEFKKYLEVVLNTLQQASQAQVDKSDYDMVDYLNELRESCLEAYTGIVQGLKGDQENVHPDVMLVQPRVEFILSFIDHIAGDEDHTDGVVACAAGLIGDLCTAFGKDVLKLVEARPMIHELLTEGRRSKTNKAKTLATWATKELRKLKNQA
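FRET biosensor Rango (snurportin 1 IBB between N-terminal EYFP and C-terminal Cerulean), 50 nM in PBS/1 mM DTT/0.02% Tween-20/0.1% BSA, preincubated 5 min RT with compound; 0.125 microM importin beta added, 45 min RT, CFP/YFP FRET ratio read.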
Rango release inh: prevents RanGTP from dissociating the Rango-importin beta complex | O95149+P62826 | Biochemical FRET Rango-importin beta, RanGTP-induced dissociation | Potency, µM (series often up to 46.1 µM), for the others: at the highest dose activity change, negative = inhibition | 340,000 compounds, 0.071% hits | AID 540253; active means falling FRET ratio curve, often poorly fitted, with flat reads before Ran was added; inconclusive means other falling curves, or compound fluorescence or quenching; inactive means flat or rising ratio curve;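 also: potency is read from the fitted curve at half-maximal effect; % of control where 0% means no effect; nearly all actives have a fitted effect of over 45% in size; -100% = wells without RanGTP and RCC1; the record marks most hits as doubtful in a second field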
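Quantitative HTS using a FRET biosensor: 0.1 uM Rango, 0.25 uM importin beta, 0.6 uM Ran, 2 mM GTP, 0.2 uM RCC1 final, PBS with DTT, Tween-20 and BSA. Post-read taken 45 min after Ran addition.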
GLA inh pH 4.5: inhibitors of human alpha-galactosidase A at pH 4.5; P06280; purified enzyme, 4-MU-alpha-Gal fluorescence, pH 4.5; activity change, negative = inhibition, % at 105 µM; 230,000 tested, under 10 active; AID 1467; inconclusive = small, poorly fitted or top-dose-only inhibition, or a rising curve; inactive = flat fitted curve, though single readings scatter; no compound was filed as active;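 also: 0% = full activity with enzyme and -100% = basal without enzyme; dose as in the result columns while the protocol names 77 µM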
Numbers without * were called inactive; ? = inconclusive; / = not tested or not shown; & = joins results of further samples. These rows are one share of the data; count on the stated rates, not on these rows.

The line under a structure holds: miR-21 reporter, Rango-impB inh, Rango release inh, GLA inh pH 4.5
CCOC(=O)C1=C(C)N(CCC(=O)O)C(=O)NC1c1ccccc1Cl (stereo not given)
 : /, 0.3%, 12%, /
COc1ccc(C(=O)COC(=O)c2cc([N+](=O)[O-])ccc2N2CCOCC2)c(OC)c1
 : /, -2.4%, 22%, /
Cc1ccc2c(c1)C(=O)C(=O)N2CC(=O)Nc1ccccc1NC(=O)c1ccccn1
 : 27%, -2.2%, 11%, 6
COC(=O)CSC(C(=O)Nc1ccc(C)c(C)c1)c1ccccc1 (stereo not given)
 : -17%, -2.0%, 1%, -2
O=C(CSc1nnc(NC(=O)C2CC2)s1)NCc1ccco1
 : -4%, -3.4%, -14%, 4
COCCN(CC(=O)Nc1cccc(C)c1)S(=O)(=O)c1ccc(S(=O)(=O)N2CCCC2)cc1
 : -3%, 0.6%, 9%, 0
N/C(=N\NC(=O)c1cccs1)c1cc2cc(Cl)ccc2oc1=O
 : -34%, 3.6%, 1%, 1
NC(=O)c1ccc(NC(=O)CN2CCN(S(=O)(=O)c3ccc4ccccc4c3)CC2)cc1
 : /, 0.3%, -6%, /
Cc1nnc2n(-c3ccc(Cl)cc3)c(=O)c3c4c(sc3n12)CN(C)CC4
 : 1%, /, /, -5
Nc1nnc(CCOc2ccc(Cl)cc2)s1
 : -12%, 1.9%, 1%, -16
COc1ccc(-c2cc(C(=O)Nc3c(C)n(C)n(-c4ccccc4)c3=O)no2)cc1
 : 1%&2%, ?, 4%, 7
CC(=O)Nc1nc(SCc2cccc3ccccc23)n[nH]1
 : -5%, -0.6%, 1%, -2
Cc1cc(C)c2c(c1)C(=O)/C(=C/c1ccc(C(=O)O)cc1)CC2
 : -17%, -1.1%, -6%, /
COc1cc(O)c(C(CCN2CCCC(C)C2)c2ccc3c(c2)OCO3)c(OC)c1 (stereo not given)
 : 4%, -1.0%, 8%, 2
CC(C)CC(NC(=O)C1CCCCC1)C(=O)N1CCN(c2ccccn2)CC1 (stereo not given)
 : 8%, -2.0%, 1%, 1
Cc1cc(NC(=O)CSc2nc(C3CC3)nc3sc(C)c(C)c23)no1
 : 3%, -0.4%, -3%, 3
COc1ccccc1NC(=O)c1ccc(S(=O)(=O)N(C)c2ccccc2)cc1
 : /, 0.4%, -7%, /
COC(=O)Cn1cc([N+](=O)[O-])nc1C
 : -1%, -0.8%, -8%, -18
CCn1c(=S)[nH]c2cc(C(=O)O)ccc21
 : -18%, /, /, 4
O=C(NCCCN1CCCC1=O)c1ccc(NS(=O)(=O)c2ccc(F)cc2)cc1
 : /, -0.3%, 0%, /
CC(C)CNc1nc(Oc2ccc(=O)[nH]n2)nc(N2CCOCC2)n1
 : 1%, 1.5%, 5%, -8
CC1Cc2ccccc2N1C(=O)CSc1nc2ccccc2s1 (stereo not given)
 : -27%, -1.1%, ?, -14
CCn1c2ccccc2c2cc(NC(=O)COC(=O)c3ccccc3F)ccc21
 : -8%, -0.7%, 1%, -4
CCCC(=O)Nc1ccc(C2C(=O)c3ccccc3C2=O)cc1
 : -11%, -0.6%, -10%, /
COc1ccccc1-n1c(SCC(=O)NC2CC2)nc2ccccc2c1=O
 : /, 5.5%, 9%, /
CCOC(=O)[C@@H]1[C@H]2COc3cc(OC)ccc3[C@@H]2N2C(=O)N(c3cccc(Cl)c3)C(=O)[C@]12C
 : -5%, 8.2%, 1%, /
CN1CCC[C@H]1CCNc1ccc2c(=O)c3ccccc3n(C)c2c1
 : /, ?, ?, /
CCOc1ccc(OCCN2CCCCC2)cc1
 : -12%, -0.5%, -5%, 10
C=CCCC(=O)N1CCC(n2nccc2NC(=O)c2ccccc2C)CC1
 : 0%, -0.1%, -7%, /
CCOC(=O)Cn1c(=O)oc2cc(S(=O)(=O)N(C)c3ccc(OC)cc3)ccc21
 : 4%, -0.8%, 3%, -1
O=c1[nH]c(SCc2ccccc2Cl)nc2c1cnn2-c1ccccc1
 : -17%, -2.4%, 9%, -7
O=c1c(-c2ccc(O)cc2O)coc2cc(O)cc(O)c12
 : -58%, 0.1%, 10%, 1
CCOCCCn1c(SCC(=O)Nc2cccc(S(=O)(=O)NC3=NCCCCC3)c2)nc2ccccc2c1=O
 : 1%, 1.1%, -23%, -6
CC(/C=C/c1ccccc1)=N/NC(=O)CNC(=O)c1ccccc1F
 : -1%, 1.1%, 0%, 0
Cc1ccc(NC(=O)c2ccc([N+](=O)[O-])o2)cc1C
 : -1%, 11%, 2%, 1
O=C(N/N=C/c1cccnc1)c1ccc(NC(=O)c2cccc(Cl)c2)cc1
 : -11%, -0.4%, -3%, /
O=C(Nc1ccncc1)c1ccc(C(=O)Nc2ccncc2)cc1
 : 1%, -1.3%, -1%, 4
O=C(COc1ccc(Cl)cc1Cl)N/N=C/c1cccnc1
 : -5%, 1.5%, 1%, /
CCOC(=O)c1c(NC(=O)COC(=O)c2cnc(C)cn2)sc(C(=O)N(C)C)c1C
 : /, 1.0%, -16%, /
Cc1c(C(=O)Nc2nonc2-c2ccc(F)cc2)oc2ccc(F)cc12
 : ?, 1.6%, 7%, /
Cc1coc2c(C)c3oc(=O)c(CCC(=O)NCc4ccccn4)c(C)c3cc12
 : -1%, -2.4%, 15%, /
c1ccc(Nc2c3c(nc4ccccc24)CCC3)cc1
 : 17%, -0.1%, -2%, -29
CCc1nnc(NC(=O)CSc2nc(C)cs2)s1
 : -1%, ?, 11%, /
C=CCCCN(Cc1ccccc1)S(=O)(=O)c1ccccc1Br
 : 5%, -2.8%, 10%, 3
COc1ccc(NC(=O)C(F)(OC)C(F)(F)F)c(OC)c1 (stereo not given)
 : -3%, -3.5%, 1%, 3
CC1=C(C(=O)N2CCOCC2)C(c2cc(C)ccc2C)NC(=S)N1 (stereo not given)
 : 1%, -1.1%, 13%, -2
O=C(NCCS(=O)(=O)N1CCN(c2ccccc2)CC1)C1CC(=O)N(c2ccccc2)C1 (stereo not given)
 : 1%&0%, -5.3%, 1%, /
O=C(CCc1ccccc1)N/N=C\C1CC=CCC1 (stereo not given)
 : -2%, -0.2%, 14%, /
C=CCOC(=O)C1=C[C@H](c2cn(C(C)=O)c3ccccc23)C[C@H](OCCCCO)O1
 : -2%, 2.6%, -11%, 5
CCNC(=O)NC(=O)COC(=O)CCCSc1nc2ccccc2s1
 : 20%, -0.4%, -14%, -6

New compounds follow
The line under a structure holds: miR-21 reporter, Rango-impB inh, Rango release inh, GLA inh pH 4.5
O=C1NCCN1Cc1cccc(Cl)c1
 : -5%, -4.1%, 3%, 1
CN1C=CC=C/C1=C1/SC(=S)N(Cc2ccccc2)C1=O
 : -4%, -0.6%, -10%, 1
CCN(CC)c1ccc(/C=N/NC(=O)c2cccc(S(=O)(=O)N3CCOCC3)c2)c(O)c1
 : 6%, ?, ?, -4
CCN(CC)S(=O)(=O)c1ccc2c(c1)N(CC(=O)NCC1CCCO1)C(=O)CO2 (stereo not given)
 : -1%, 3.9%, -3%, /
CC(=O)c1ccc(NC(=O)C2CCCN(C(=O)c3ccc(Cl)cc3)C2)cc1 (stereo not given)
 : -23%, 4.3%, -13%, -7
CS(=O)(=O)c1ccc(Cl)c(NC(=O)CSc2nnc(C3CC3)n2C2CC2)c1
 : /, 0.1%, ?, /
Cc1ccc2[nH]c(O)c(N=O)c2c1
 : -19%, 7.2%, -1%, -2
COc1ccccc1N1CCN(Cc2ccc(OC)c3ccccc23)CC1
 : -4%, 2.6%, 20%, 2
COc1cc(S(=O)(=O)N2CCN(C(=O)c3ccccc3F)CC2)c(OC)cc1NC(C)=O
 : 2%, -3.9%, 16%, -7
CC(C)(C)OC(=O)CNC(=O)c1[nH]cnc1C(=O)NC1CCN(C(=O)OC(C)(C)C)CC1
 : 11%, 3.2%, -14%, /
C=CCOC(=O)C1=C(C)NC(C)=C(C(=O)OCC=C)C1c1ccc(O)cc1
 : -7%, -5.0%, 6%, -7
O=S(=O)(c1ccc(Cl)cc1)c1ccccn1
 : 0%, 0.4%, 1%, 0
CN(C(=O)COC(=O)C1CCN(S(=O)(=O)c2c(Cl)cccc2Cl)CC1)C1CCCCC1
 : /, -0.2%, -2%, /
COc1cc(Cl)c(NS(=O)(=O)c2ccc(-c3ccc(=O)[nH]n3)o2)c(OC)c1
 : 3%, -3.5%, 8%, /
COc1ccccc1NC(=O)Cn1c2ccccc2c2nc3n(c(=O)c21)CCS3
 : -2%, -2.0%, 0%, 1
O=C(CSc1n[nH]c(-c2ccco2)n1)N1c2ccccc2Sc2ccccc21
 : -6%, -3.1%, -3%, 1
CCc1ccc(C(O)(CC(C)C)C(CN2CCOCC2)c2ccccc2)cc1 (stereo not given)
 : 26%, 0.7%, 21%, /
O=C(Nc1ccc2c(c1)OCCO2)c1ccc(Br)cc1
 : -23%, 4.0%, 1%, /
O=C1N/C(=N\N=C\c2ccccn2)SC1Cc1cccc(SC(F)F)c1 (stereo not given)
 : 0%, -0.1%, 1%, -1
CCn1cc(/C=C(\NC(=O)c2ccccc2F)C(=O)NCCN2CCOCC2)c2ccccc21
 : 1%, ?, -14%, /
Cc1cccc2cc(CN(C(=O)c3cnccn3)C3CCCCC3)c(Cl)nc12
 : 2%, 3.9%, -13%, 0
COc1ccc(CC(=O)Nc2ccc(S(=O)(=O)Nc3nccs3)cc2)cc1
 : -3%, -6.1%, -26%, /
CC(C)N1C(=O)CC(Nc2ccc(N3CCOCC3)cc2)C1=O (stereo not given)
 : -32%, 1.3%, -8%, -13
COc1ccc(S(=O)(=O)Nc2ccc(NC(C)=O)cc2)cc1[N+](=O)[O-]
 : 0%, -6.1%, 0%, 2
Cc1nonc1OCCn1c([N+](=O)[O-])cnc1C
 : -1%, -4.2%, -9%, 8
Cc1cc(C)c(S(=O)(=O)N2CCN(c3nc4c(c(=O)n(C)c(=O)n4C)n3C)CC2)c(C)c1
 : -6%, /, /, 1
Cc1ccc(C)c(N2CCN(S(=O)(=O)c3ccc4c(c3)CCN4C(=O)CCC(=O)O)CC2)c1
 : 0%, 1.4%, -12%, -6
Cc1nc(CS(=O)(=O)c2ccc(Cl)cc2)cc(N2CCOCC2)n1
 : -2%, -3.1%, -6%, -6
Cc1nc(SCc2ccc(C(=O)O)cc2)c2c(C)c(C)sc2n1
 : 1%, 0.9%, 13%, 3
O=C(Nc1ccccc1)/C(=C/c1ccc([N+](=O)[O-])cc1)NC(=O)c1ccco1
 : -37%, -4.8%, 1%, /
O=C(CN1CCOCC1)N/N=C/c1c(O)ccc2ccccc12
 : 18%, ?, ?, /
CCOC(=O)c1c(C)[nH]c(C)c1C(=O)CSc1nnc(-c2ccncc2)n1Cc1ccccc1
 : -1%, -2.6%, -3%, 3
COc1ccccc1CNC(=O)COc1cccc(-n2cnnn2)c1
 : /, 3.7%, -10%, /
CCOC(=O)c1ncn2c1CN(C)C(=O)c1cc(F)ccc1-2
 : -4%&-6%, 1.0%, -10%, 4&3&-5&-11
COc1ccc(/C=C2/C(=O)N=C3SCCN32)cc1
 : -5%, -1.8%, -8%, -1
Cc1cc(C(=O)N2CCCC(N3CCN(c4cccc(Cl)c4)CC3)C2)no1 (stereo not given)
 : 0%, -5.4%, 18%, /
Cc1ccc2nc(SCC(=O)Nc3ccc(C)c([N+](=O)[O-])c3)[nH]c2c1
 : -13%, -0.7%, 9%, -7
COc1ccc(-c2ccc3oc(-c4ccc(OC)cc4)c(-c4cc(OC)c(OC)c(OC)c4)c3c2)cc1
 : /, 1.2%, 7%, /
COc1ccc(C(=O)Nc2nnc(-c3ccco3)s2)cc1
 : -34%, 2.8%, 3%, -5
Cc1ccc(NC(=O)C(=O)NCCN2CCN(S(C)(=O)=O)CC2)cc1C
 : -1%, -1.0%, -6%, 9
CCOC(=O)c1c(N)sc(C(O)(C(F)(F)F)C(F)(F)F)c1-c1ccc(Cl)cc1
 : 1%, 1.9%, 2%, -10
COCC(C)N1CCC(Oc2ccc(C(=O)N3CCCC3)cc2)CC1 (stereo not given)
 : -4%, -3.9%, -4%, /
CCn1c(C(=O)O)c(CC(=O)Nc2cccc(C(F)(F)F)c2)c2ccccc21
 : -13%, 2.3%, 18%, /

High-throughput results: PubChem, National Center for Advancing Translational Sciences (NCATS)
